Screening results as filed in PubChem.
mut p53 SMM = mutant p53 (human) binding | small molecule microarray binding, anti-GST fluorescence | calls only | hit rate 0.4% among 17,000 | AID 624136;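 active means compounds whose four printed spots each glow above background more than chance allows, each with a p-value under 7%; compounds were printed on slides so no solution concentration is given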;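 further: about 2 pmol printed per array spot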
ID4 binder = binds human ID4 protein on microarray | P47928 | small molecule microarray, Flag-ID4 binding, fluorescence F/B | calls only | hit rate 1.2% among 31,000 | AID 624137;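 active means spot signal over background at p below 0.07 in all four prints; compounds were printed on slides so no solution concentration is given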;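 further: a binder raises fluorescence above local background on the spot; about 2 pmol printed per array spot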
Target sequence (P47928 whole entry, looked up): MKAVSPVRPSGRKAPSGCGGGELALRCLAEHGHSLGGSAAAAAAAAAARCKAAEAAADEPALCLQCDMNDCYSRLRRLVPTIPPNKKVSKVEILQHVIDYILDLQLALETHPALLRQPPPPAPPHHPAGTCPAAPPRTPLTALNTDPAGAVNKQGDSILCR
STAT3 SMM = STAT3 (human) binding; Small molecule microarray, His-STAT3 binding, anti-His fluorescence; calls only; hit rate 0.2% among 17,000;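 active means compounds whose four printed spots each show fluorescence over background unusually high for their array block, chance value under 7%; compounds were printed on slides so no solution concentration is given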;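 further: about 2 pmol printed per array spot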
c-Myc SMM = c-Myc (human) binding | P01106 | small molecule microarray, His-c-Myc binding, anti-His fluorescence | calls only | hit rate 1.5% among 17,000;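 active means spot fluorescence over background with P-value below 7% in all four replicate spots, showing protein binding; compounds were printed on slides so no solution concentration is given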;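 further: score is binary with 100 for all four spots passing and 0 otherwise; about 2 pmol printed per array spot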
Target sequence (P01106 whole entry, looked up): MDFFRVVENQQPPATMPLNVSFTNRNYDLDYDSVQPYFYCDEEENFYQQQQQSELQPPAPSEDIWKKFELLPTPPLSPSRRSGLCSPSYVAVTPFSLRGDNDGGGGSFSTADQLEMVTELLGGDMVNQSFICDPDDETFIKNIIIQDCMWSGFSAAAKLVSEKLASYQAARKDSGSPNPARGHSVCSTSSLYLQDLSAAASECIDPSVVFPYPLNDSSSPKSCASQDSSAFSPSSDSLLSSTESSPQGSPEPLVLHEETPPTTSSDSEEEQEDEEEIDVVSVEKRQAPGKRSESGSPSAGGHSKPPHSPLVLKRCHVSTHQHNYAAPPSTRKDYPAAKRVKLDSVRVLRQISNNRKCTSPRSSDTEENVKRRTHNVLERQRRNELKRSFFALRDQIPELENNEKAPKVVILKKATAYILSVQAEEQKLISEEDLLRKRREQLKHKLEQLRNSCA
Calls only; i = inactive; / = not tested or not shown; + = active, no number. These rows are one share of the data, so the mix of outcomes need not match the whole.

SMILES	mut p53 SMM	ID4 binder	STAT3 SMM	c-Myc SMM
C[C@H]1CN([C@@H](C)CO)C(=O)c2cccc(NS(=O)(=O)c3cn(C)cn3)c2O[C@@H]1CN(C)C(=O)Nc1cccc2ccccc12	i	i	i	i
Cc1noc(C)c1NC(=O)N(C)C[C@@H]1Oc2c(NC(=O)c3nc4ccccc4s3)cccc2C(=O)N([C@H](C)CO)C[C@@H]1C	i	i	i	i
COc1ccc(C(C)=O)cc1CSc1nnc(-c2ccccc2O)n1-c1ccccc1	i	i	i	i
C=C1C(=O)OC2C3=C(C)C(=O)CC3C(C)CC(O)C12 (stereo unspecified)	i	i	i	i
C[C@H](CO)N1C[C@H](C)[C@H](CN(C)S(=O)(=O)c2cn(C)cn2)Oc2c(NC(=O)c3cnccn3)cccc2C1=O	i	i	i	i
C[C@H](CO)N1C[C@H](C)[C@@H](CN(C)Cc2ccc3c(c2)OCO3)Oc2ccc(NS(=O)(=O)c3ccccc3)cc2CC1=O	i	i	i	i
O=C1OCCC1Sc1nnc(-c2ccccc2[N+](=O)[O-])o1 (stereo unspecified)	i	i	i	i
CCN1CCN(c2c(Cl)cccc2NC(=O)c2ccc(-c3ccccc3[N+](=O)[O-])o2)CC1	i	i	i	i
C[C@H](CO)N1C[C@H](C)[C@@H](CN(C)S(=O)(=O)c2cn(C)cn2)OCCCC[C@H](C)Oc2ccc(NC(=O)c3ccccc3)cc2C1=O	i	i	i	i
CC(C)NC(=O)Nc1ccc2c(c1)C(=O)N([C@@H](C)CO)C[C@H](C)[C@H](CN(C)C(=O)C1CCCCC1)OCCCC[C@@H](C)O2	i	i	i	i
C=CC1=C(C(=O)O)N2C(=O)[C@@H](NC(=O)/C(=N\OCC(=O)O)c3csc(N)n3)[C@H]2SC1	i	i	i	i
C[C@@H]1CN([C@H](C)CO)C(=O)Cc2cc(NC(=O)Cn3cnnn3)ccc2O[C@@H]1CN(C)C(=O)NC1CCCCC1	i	i	i	i
C[C@H]1CN([C@@H](C)CO)C(=O)c2cccc(NC(=O)Nc3ccccc3)c2O[C@H]1CN(C)C(=O)Nc1ccc(F)cc1	i	/	i	i
O=C(/C=C/c1ccc(O)c(O)c1)c1ccc(O)cc1O	i	i	i	i
C[C@H]1CN([C@@H](C)CO)C(=O)CCCn2nncc2CO[C@H]1CN(C)C(=O)Nc1ccccc1F	i	i	i	i
C[C@@H]1CCCCO[C@H](CN(C)Cc2ccccc2)[C@H](C)CN([C@@H](C)CO)C(=O)c2cc(NC(=O)CCC(F)(F)F)ccc2O1	i	i	i	i
C[C@H]1CN([C@@H](C)CO)C(=O)c2cccc(NS(=O)(=O)c3ccc(F)cc3)c2O[C@@H]1CN(C)C(=O)NC1CCCCC1	i	i	i	i
CNC(=O)c1cc(Oc2ccc(NC(=O)Nc3ccc(Cl)c(C(F)(F)F)c3)cc2)ccn1	i	i	i	i
C[C@@H]1CN([C@@H](C)CO)C(=O)c2cc(NC(=O)Nc3ccc4c(c3)OCO4)ccc2O[C@H]1CN(C)S(=O)(=O)c1cccs1	i	i	i	i
C[C@@H]1CN([C@@H](C)CO)C(=O)c2cccc(NC(=O)c3nc4ccccc4s3)c2O[C@@H]1CN(C)C(=O)Nc1ccccc1	i	i	i	i

Ordered by count of non-hydrogen atoms (low to high): 3 of the compounds above
SMILES	mut p53 SMM	ID4 binder	STAT3 SMM	c-Myc SMM
CNC(=O)c1cc(Oc2ccc(NC(=O)Nc3ccc(Cl)c(C(F)(F)F)c3)cc2)ccn1	i	i	i	i
Cc1noc(C)c1NC(=O)N(C)C[C@@H]1Oc2c(NC(=O)c3nc4ccccc4s3)cccc2C(=O)N([C@H](C)CO)C[C@@H]1C	i	i	i	i
C[C@@H]1CCCCO[C@H](CN(C)Cc2ccccc2)[C@H](C)CN([C@@H](C)CO)C(=O)c2cc(NC(=O)CCC(F)(F)F)ccc2O1	i	i	i	i

Next results follow.
SMILES	mut p53 SMM	ID4 binder	STAT3 SMM	c-Myc SMM
Cc1noc(C)c1S(=O)(=O)N(C)C[C@H]1Oc2c(cccc2N(C)C)C(=O)N([C@@H](C)CO)C[C@H]1C	i	i	i	i
C[C@H]1CN([C@@H](C)CO)C(=O)Cc2cc(NS(C)(=O)=O)ccc2O[C@@H]1CN(C)S(=O)(=O)c1cccs1	i	i	i	i
O=C(NCCCN1CCCCCC1)C(c1ccccc1)C1CCCCC1 (stereo unspecified)	i	i	i	i
Cc1ccc2nc(-c3ccc(NC(=O)CN4CCN(C(=O)C5CCCO5)CC4)cc3)sc2c1 (stereo unspecified)	i	i	i	i
C[C@@H]1CN([C@@H](C)CO)C(=O)Cc2cc(NC(=O)Cc3cn(C)c4ccccc34)ccc2O[C@@H]1CN(C)C(=O)Nc1ccc(F)cc1	i	i	i	i
C[C@H](CO)N1C[C@H](C)[C@H](CN(C)Cc2ccncc2)Oc2ccc(NC(=O)NC3CCCCC3)cc2CC1=O	i	i	i	i
COC(=O)c1cc(C)sc1NC(=S)Nc1ncn(Cc2ccc(F)cc2Cl)n1	i	i	i	i
CCC(Oc1ccccc1)C(=O)Nc1cccc(NC(C)=O)c1 (stereo unspecified)	i	i	i	i
Cn1c(=O)c2c(nc(SCC(=O)Nc3ccc(N4CCOCC4)c(Cl)c3)n2C)n(C)c1=O	i	i	i	i
C[C@@H]1CCCCO[C@@H](CN(C)Cc2ccc(C(=O)O)cc2)[C@@H](C)CN([C@@H](C)CO)C(=O)c2cc(NC(=O)C3CCCCC3)ccc2O1	i	i	i	i
CNC[C@H]1Oc2c(NS(=O)(=O)c3cn(C)cn3)cccc2C(=O)N([C@@H](C)CO)C[C@H]1C	i	i	i	i
C[C@@H]1CN([C@H](C)CO)C(=O)c2cccc(NS(C)(=O)=O)c2O[C@@H]1CN(C)C(=O)Nc1cccc2ccccc12	i	i	i	i
C[C@@H]1CN([C@H](C)CO)C(=O)Cc2cc(NS(=O)(=O)c3cn(C)cn3)ccc2O[C@H]1CN(C)Cc1ccccc1	i	i	i	i
COc1ccc(C#Cc2ccc3c(c2)[C@]2(C(=O)N3)[C@H](c3ccc(OCCO)cc3)N3[C@H](c4ccccc4)[C@H](c4ccccc4)OC(=O)[C@H]3[C@@H]2C(=O)N2CCc3cc(OC)c(OC)cc3C2)cc1	i	i	i	i
CNC[C@H]1Oc2c(NC(=O)c3cc(C)nn3C)cccc2C(=O)N([C@@H](C)CO)C[C@@H]1C	i	i	i	i
CC(C)Cc1ccc(CN2CC[C@@H](NC(=O)c3ccccc3)C2)cc1	i	i	i	i
Cn1c(SCC(=O)Nc2ccc(F)cc2)nnc1-c1cccnc1	i	i	i	i
Cc1cc(S(=O)(=O)NCc2cccnc2)ccc1F	i	i	i	i
C[C@H]1CN([C@@H](C)CO)C(=O)c2cc(NS(=O)(=O)c3ccccc3)ccc2O[C@@H]1CN(C)C(=O)NC1CCCCC1	i	i	i	i
NC(=O)C1CCN(C(=O)CSc2nc3ccccc3s2)CC1	i	i	i	i
COc1ccc(CCCn2ncc3c2nc(N)n2nc(-c4ccco4)nc32)cc1	i	i	i	i
COc1ccc(NC(=O)N(C)C[C@H]2Oc3c(NS(=O)(=O)c4ccc(OC)cc4)cccc3C(=O)N([C@@H](C)CO)C[C@H]2C)cc1	i	/	i	i
C[C@@H]1CN([C@H](C)CO)C(=O)Cc2cc(NC(=O)CCN3CCOCC3)ccc2O[C@@H]1CN(C)S(=O)(=O)c1ccccc1	i	i	i	i
CCc1cc2c(SCC(=O)N3CCc4ccccc43)ncnc2s1	i	i	i	i
CNC[C@@H]1Oc2ccc(NS(=O)(=O)c3ccccc3)cc2C(=O)N([C@H](C)CO)C[C@@H]1C	i	i	i	i
COc1ccc(C(=C2C(=O)Nc3ccccc32)c2ccc(OC)cc2)cc1	i	i	i	i
COc1cc2c(c(N)c1OC)C(=O)/C(=C/c1cc(C)c(O)c(C)c1)C2	i	/	i	i
Cc1noc(C)c1NC(=O)N(C)C[C@H]1OCCCC[C@@H](C)Oc2ccc(NS(=O)(=O)c3cccs3)cc2C(=O)N([C@@H](C)CO)C[C@@H]1C	i	i	i	i
O=C(c1cc2ccccc2oc1=O)N(Cc1ccc(F)cc1)Cc1ccco1	i	i	i	i
COc1ccc(NC(=O)C(C)Oc2ccccc2)cc1NC(=O)c1ccco1 (stereo unspecified)	i	i	i	i

Part of the list above, bar-delimited:
Compound | mut p53 SMM | ID4 binder | STAT3 SMM | c-Myc SMM
CNC[C@@H]1Oc2ccc(NS(=O)(=O)c3ccccc3)cc2C(=O)N([C@H](C)CO)C[C@@H]1C | i | i | i | i
COc1ccc(C(=C2C(=O)Nc3ccccc32)c2ccc(OC)cc2)cc1 | i | i | i | i

Continued.
SMILES	mut p53 SMM	ID4 binder	STAT3 SMM	c-Myc SMM
COc1ccc(S(=O)(=O)N(C)C[C@@H]2Oc3c(NC(=O)Nc4ccc5c(c4)OCO5)cccc3C(=O)N([C@@H](C)CO)C[C@@H]2C)cc1	i	/	i	i
C[C@@H]1CN([C@@H](C)CO)C(=O)Cc2cc(NS(=O)(=O)c3ccccc3)ccc2O[C@H]1CN(C)C(=O)Nc1ccccc1	i	+	i	i
C[C@H]1CN([C@@H](C)CO)C(=O)c2cc(NS(=O)(=O)c3ccc(Cl)cc3)ccc2O[C@H]1CN(C)C(=O)NC1CCCCC1	i	i	i	i
Cn1c(-c2ccc3c(c2)OCO3)cc(=O)c2ccccc21	i	i	i	i
CC(C)OC(=O)CSc1nc(N)c(C#N)cc1C#N	i	i	i	i
COC(=O)C(CC(=O)c1ccc(Cl)cc1)c1cc(=O)oc2cc(OC)ccc12 (stereo unspecified)	i	i	i	i
Cc1noc(C)c1S(=O)(=O)Nc1ccc2c(c1)C(=O)N([C@@H](C)CO)C[C@H](C)[C@H](CN(C)C(=O)Nc1ccc(F)cc1)O2	i	i	i	i
Cc1noc(C)c1S(=O)(=O)Nc1cccc2c1O[C@@H](CN(C)S(=O)(=O)c1ccc(Cl)cc1)[C@@H](C)CN([C@H](C)CO)C2=O	i	/	i	i
COc1ccc(S(=O)(=O)Nc2ccc3c(c2)CC(=O)N([C@@H](C)CO)C[C@H](C)[C@H](CN(C)CC2CC2)O3)cc1	i	i	i	i
CCCN(C)C[C@@H]1OCCCC[C@@H](C)Oc2ccc(NS(=O)(=O)c3ccc(OC)cc3)cc2C(=O)N([C@H](C)CO)C[C@@H]1C	i	i	i	i
O=C(CNS(=O)(=O)c1ccccc1)Nc1ccc(Br)cc1F	i	i	i	i
C[C@H]1CN([C@@H](C)CO)C(=O)c2cccc(NC(=O)Nc3cccc4ccccc34)c2O[C@@H]1CN(C)C(=O)NC1CCCCC1	i	i	i	i
C[C@H](CO)N1C[C@H](C)[C@H](CN(C)S(=O)(=O)c2cn(C)cn2)OCc2cn(nn2)CCCC1=O	i	i	i	i
CC1Oc2c3c(c4c(-c5ccccc5)cc(=O)oc4c2C(=O)C1C)OC(C)(C)C=C3 (stereo unspecified)	i	/	i	i
C[C@@H]1CN([C@H](C)CO)C(=O)c2cccc(NC(=O)Nc3ccc(F)cc3)c2O[C@H]1CN(C)C(=O)NC1CCCCC1	i	i	i	i
CCCCC/C=C\C/C=C\CCCCCCCC(=O)OCC(O)CO (stereo unspecified)	i	/	i	i
CCOC(=O)c1ccc(NC(=O)CSc2nc(N)c3c4c(sc3n2)CCC4)cc1	i	i	i	i
C=CCOC(=O)[C@H]1[C@@H]2C(=O)O[C@@H](c3ccccc3)[C@@H](c3ccccc3)N2[C@@H](c2ccc(OCCOC(=O)[C@H]3C[C@H]4C(=O)N[C@@H](CCCCNC(C)=O)C(=O)N4[C@H]3c3ccc(O)cc3)cc2)[C@]12C(=O)Nc1ccccc12	i	/	i	i
Cc1noc(C)c1NC(=O)Nc1ccc2c(c1)C(=O)N([C@H](C)CO)C[C@H](C)[C@H](CN(C)C(=O)Nc1c(C)noc1C)OCCCC[C@H](C)O2	i	i	i	i
CCOC(=O)C1CCCN(S(=O)(=O)c2ccc(Cl)c(Cl)c2OC)C1 (stereo unspecified)	i	i	i	i
Cc1noc(C)c1NC(=O)Nc1ccc2c(c1)CC(=O)N([C@H](C)CO)C[C@H](C)[C@@H](CN(C)Cc1ccncc1)O2	i	i	i	i
Cc1cc(OCC(=O)Nc2ccccc2C(N)=O)cc(C)c1Br	i	i	i	i
C[C@H]1CN([C@@H](C)CO)C(=O)c2cccc(NC(=O)c3nc4ccccc4s3)c2O[C@@H]1CN(C)Cc1ccc(-c2ccccc2)cc1	i	/	i	i
CC(=O)Nc1ccc(C(=O)CSc2ncn(-c3ccccc3)n2)cc1	i	i	i	i
Cc1noc(C)c1S(=O)(=O)N(C)C[C@H]1Oc2ccc(NC(=O)Nc3ccccc3)cc2CC(=O)N([C@@H](C)CO)C[C@H]1C	i	i	i	i
C[C@H](CO)N1C[C@H](C)[C@H](CN(C)C)Oc2c(NC(=O)NC3CCCCC3)cccc2C1=O	i	i	i	i
C[C@H](CO)N1C[C@H](C)[C@H](CN(C)Cc2ccc(Cl)c(Cl)c2)OCc2cn(nn2)CCCC1=O	i	i	i	i
C[C@H](CO)N1C[C@H](C)[C@H](CN(C)Cc2ccncc2)Oc2c(NC(=O)C3CCOCC3)cccc2C1=O	i	i	i	i
COc1ccc(NC(=O)Nc2ccc3c(c2)CC(=O)N([C@H](C)CO)C[C@H](C)[C@H](CN(C)S(=O)(=O)c2ccc(C)cc2)O3)cc1	i	i	i	i

By substructure, those above containing a CF3 group (2)
SMILES	mut p53 SMM	ID4 binder	STAT3 SMM	c-Myc SMM
C[C@@H]1CCCCO[C@H](CN(C)Cc2ccccc2)[C@H](C)CN([C@@H](C)CO)C(=O)c2cc(NC(=O)CCC(F)(F)F)ccc2O1	i	i	i	i
CNC(=O)c1cc(Oc2ccc(NC(=O)Nc3ccc(Cl)c(C(F)(F)F)c3)cc2)ccn1	i	i	i	i
